Assay outcomes from PubChem.
RmlCD inh mix = inhibitors of RmlC and RmlD coupled enzymes; RmlC/RmlD coupled enzyme inhibition, 384-well mixture HTS; inhibition, % at 5.5 µM; 0.39% of 110,000 active; AID 1532; in the data active = inhibition above about 30%, passing the limit was not always enough; only retested compounds are shown here; note: strong numbers were not always called active
RmlCD inh mix retest = further read-out of RmlCD inh mix, marked with its call; inhibition, %; measured here: mean retest inhibition;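 single compounds in two wells; values far above 100% likely come from compound fluorescence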
Numbers without * were called inactive; i = inactive; · = not tested or not shown. An excerpt; the hit share may differ from the screen's.

Under each structure – RmlCD inh mix	RmlCD inh mix retest
- CC(C)(C)c1cc(N/C=C\c2nnnn2-c2ccc(Br)cc2)no1
    158	20
- CC(C)(C)C1CCc2onc(C(=O)Nc3cccc(O)c3)c2C1 (stereo not given)
    83	2
- CCCc1nc2oc(C(=O)OCC)c(N)c2c2c1COC(C)(C)C2
    35	-207
- O=c1cc(-c2ccc3c(c2)OCO3)oc2ccccc12
    72	-24
- CCN(CC#CCC(O)(c1ccccc1)C1CCCC1)C(C)C (stereo not given)
    48	10
- CCn1c(=O)cc(SCC(=O)NCc2ccccn2)c2ccccc21
    107	3
- Nc1ccc2nc(-c3ccccc3)[nH]c2c1
    100	1
- NS(=O)(=O)c1cccc2cccnc12
    80	0
- CCOC(=O)CSc1nnc(-c2cccc(Cl)c2)n1CC
    103	-3
- O=C(Nc1ccccc1)N1CCC(n2c(=O)[nH]c3ccccc32)CC1
    173	1
- Cc1ccc(C)c(N2CCN(c3nnnn3-c3ccccc3)CC2)c1
    i	5
- O=S(=O)(/C=C/c1ccccc1)Nc1ccc2c(c1)OCO2
    41	-13
- CCN(CC)CCN1C(=O)c2ccccc2NC1c1ccccc1F (stereo not given)
    43	28
- O=C(COC(=O)C1CCN(C(=O)c2ccc(Cl)cc2)CC1)c1ccco1
    39	4
- COc1ccccc1-c1c(C)oc2cc(OC(=O)c3ccco3)ccc2c1=O
    32*	46*
- COc1ccc(C(=O)NC(C)c2nnc(SCC(=O)Nc3nc4ccccc4s3)n2C)cc1 (stereo not given)
    62	4
- COc1ccc2c(c1)c1ncn(CCCN3CCOCC3)c(=O)c1n2C
    106*	49*
- CN1C(=O)C2CN(CCc3ccccc3)CNC2N(C)C1=O (stereo not given)
    93	0
- COc1ccc(C2NC(=O)c3sc4nc(C)c(C(C)=O)c(-c5ccc(Cl)cc5)c4c3N2)cc1 (stereo not given)
    52*	73*
- O=C1CCCN1C(=O)CCC(=O)N1CCCC1=O
    57	14
- Cn1c(/C(C#N)=C/Nc2ccccn2)nc2ccccc21
    38	28
- Cc1cc(C)nc(NC(=O)NS(=O)(=O)N2CCCCCC2)n1
    35	-10
- COc1cc2c(cc1OC)-c1cc(OCCN3CCOCC3)nc(=O)n1CC2
    61*	93*
- CCCCC[C@H](O)/C=C/[C@H]1C=CC(=O)[C@@H]1C/C=C\CCCC(=O)O
    57	5
- CNS(=O)(=O)c1cccc(C(=O)OCC(=O)C23CC4CC(CC(C4)C2)C3)c1
    56	2
- CC(C)c1cc(C(=O)O)on1
    31	4
- COc1cccc(CNC(=O)c2cc3oc4ccccc4c3n2C)c1OC
    58	-143
- COc1ccc(-c2ccc(C#N)c(SCC(=O)Nc3sc4c(c3C#N)CCC4)n2)cc1OC
    54	-134
- COc1ccc(C(=O)C(CN2CCOCC2)c2ccccc2)cc1 (stereo not given)
    97	-10
- Cc1ccc(-c2sc(C)nc2CC(=O)O)cc1
    142	10
- CCC(CC)C(=O)Nc1ccccc1NC(C)=O
    110	18
- CCCn1c(-c2cccs2)nc2nc3ccccc3nc21
    81*	91*
- COc1ccccc1NC(=O)CN1C(=O)NC(CC(C)C)C1=O (stereo not given)
    62	4
- COC(=O)c1c(C)n(-c2ccc(C)cc2)c2ccc(O)cc12
    30	-25
- CCCNS(=O)(=O)c1ccc(CCC(=O)NCc2ccco2)cc1
    51	34
- CC1(C)Cc2c(ccc3ccccc23)C(=O)N1
    53	-6
- CC(C)CN1C(=O)c2ccc(NC(=O)c3cccs3)cc2C1=O
    93	-19
- Cc1cc(C)n(-c2ccc(C(=O)C(C#N)c3nc4ccccc4n3C)cc2)n1 (stereo not given)
    75	4
- O=C(OCc1cnc(Cl)s1)c1cccc(Cl)c1Cl
    32	5
- CCOC(=O)N1CCC(O)(c2cc(C)c(C)cc2C)CC1
    50	8
- COc1ccc(-c2nnc(-c3ccc(N)cc3)o2)cc1
    30	-25
- COC(=O)c1[nH]c2cc(OC)ccc2c1NC(=O)CCN1CCN(Cc2ccc3c(c2)OCO3)CC1
    37	-4
- CCOc1ccc(C(C#N)N2CCOCC2)cc1OC (stereo not given)
    74	-11
- COc1ccc(NS(=O)(=O)c2ccc(NS(C)(=O)=O)cc2)cc1
    34	-8
- CCOc1ccc(NC(=O)CCN2CCN(S(=O)(=O)c3ccc(Cl)cc3)CC2)cc1
    36	1
- CC(=O)N1c2ccccc2NC(=O)C1(C)C
    45	6
- CCCCC(=O)Nc1cc2nn(-c3ccc(OC)cc3)nc2cc1C
    121	4
- Cc1noc(C)c1C(=O)Nc1ccc(Cl)cc1C(F)(F)F
    30	-3
- COc1ccccc1N(C(=O)CNC(=O)c1ccco1)C(C(=O)NC1CCCC1)c1ccncc1 (stereo not given)
    45	-5
- CCOC(=O)CNc1nc(C#N)nc(N2CCOCC2)n1
    65	-12
- Cc1cccc(Nc2nc(N3CCCC3)nc(N3CCCC3)n2)c1
    104	-9
- C=CCN1C(=O)/C(=C\c2ccc(Cl)cc2)N=C1SCC(=O)NC1CCCCC1
    47	1
- Cc1ccc(-c2cc(-c3ccc(Cl)cc3)c(C#N)c(N)n2)o1
    93	33
- CC(=O)c1c(C(C)=O)c(C)n(Cc2ccc3c(c2)OCO3)c1C
    i	2
- O=C(CCN1CCc2ccccc2C(O)(c2ccccc2)C1)c1ccc2c(c1)OCCO2 (stereo not given)
    37	11
- CCC(=O)Nc1c(C)nn(C(=O)CC)c1C
    55	1
- C=CCn1c(C(CCC(C)C)CC(C)(C)O)n[nH]c1=S (stereo not given)
    40	-7
- O=C1CC(N2CCN(Cc3ccc4c(c3)OCO4)CC2)C(=O)N1c1cccc(Cl)c1 (stereo not given)
    186	9
- Cc1ccc(NC(=O)c2cnccn2)c(OC(F)F)c1
    67	-13
- Cc1ccc2cc3cc(C(=O)NCc4ccco4)oc3nc2c1
    34	0

Remaining list, next part
Under each structure – RmlCD inh mix	RmlCD inh mix retest
- Cc1cc(=O)n2[nH]c(-c3ccc(F)cc3)nc2n1
    68	-10
- O=C(c1cnn2c(C(F)(F)F)cc(-c3ccc4c(c3)OCO4)nc12)N1CCCCC1
    36	5
- CCn1c(CSc2nncn2-c2ccc(OC)cc2)nc2cc(S(=O)(=O)N(C)C)ccc21
    51	-10
- CC(C)N(Cc1nc(-c2ccc(Cl)cc2)no1)C(=O)CN(C)S(=O)(=O)c1ccc(Cl)cc1
    30	4
- O=c1[nH]c(=O)n(-c2ccc(F)cc2)c(O)c1C=Nc1ccccc1N1CCCC1
    43	30
- CCC(C)(C)NC(=O)C(OC(=O)c1ccco1)c1ccccc1OC (stereo not given)
    100	8
- C/C(Cl)=C\Cn1c(N2CCCCCC2)nc2c1c(=O)n(C)c(=O)n2C
    36	4
- CCCCOC(=O)n1c(SCC(=O)N(CC)CC)nc2ccccc21
    53	4
- Fc1cc2nccnc2cc1N1CCSCC1
    126	10
- O=C1OCC2=C1C(c1ccc3c(c1)OCO3)Sc1ccccc1N2 (stereo not given)
    35	-9
- CCOC(=O)c1cc(NC(=O)c2ccoc2C)cc(C(=O)OCC)c1
    106	-4
- C=C1CN(Cc2ccccc2)S(=O)(=O)c2ccccc21
    68	-2
- CCSc1nnc(NC(=O)c2csc(C)c2)s1
    57	2
- COC(=O)c1nc2ccccc2s1
    66	-8
- COC(=O)c1cc(=O)nc2sc(-c3cccs3)nn12
    39*	72*
- CCCCCCn1c(SCC(C)C)nc2c1c(=O)[nH]c(=O)n2C
    142	5
- Cc1ccc2nc(NC(=O)c3cccc(-c4cc5ccccc5oc4=O)c3)sc2c1
    41*	105*
- CCc1ccc(NC(=O)CSc2nnc(-c3cnccn3)n2Cc2ccco2)cc1
    43	1
- CC(C)Nc1nc(NC(C)C)nc(NS(=O)(=O)c2ccc(N)cc2)n1
    59	-3
- COc1ccc(NC(=O)Cn2nnc(-c3ccccc3NC(=O)c3cccs3)n2)cc1
    31	3
- CC(=O)N(C)C1=C(N2CCOCC2)C(=O)c2ccccc2C1=O
    126	3
- O=C(Nc1cccc(Oc2ccc3c(c2)C(=O)NC3=O)c1)c1ccco1
    77	-10
- O=C(Nc1nnc(-c2ccc3c(c2)OCCO3)o1)c1ccc(Cc2ccccc2)cc1
    33	-5
- Cc1ccc(NC2c3ncccc3C(=O)N2Cc2ccc(F)cc2)cc1 (stereo not given)
    65	-4
- CN=C1S/C(=C\c2cn(C(C)=O)nc2-c2ccccc2)C(=O)N1C
    116	-19
- COc1ccccc1NC(=O)CSc1nc(O)c(Cc2ccccc2)c(=O)[nH]1
    39	4
- N#CC1(C#N)COC23CCCCC2C1(C#N)C(=N)O3 (stereo not given)
    107*	65*
- CCOc1c(C(=O)CC)cc2c(C)cc(=O)oc2c1C
    32	-7
- CCOC(=O)C1=C(C)NC(SCC(=O)OC)=C(C#N)C1c1ccc(C(=O)OC)cc1 (stereo not given)
    102	-1
- CC1(C)CC(NC(=O)c2cccc3ccccc23)CC(C)(C)N1
    87	15

Look-ups from the results shown.
Cc1ccc2cc3cc(C(=O)NCc4ccco4)oc3nc2c1 in RmlCD inh mix shows 34
NS(=O)(=O)c1cccc2cccnc12 in RmlCD inh mix retest shows 0

Reformatted field by field: entries from further up
C/C(Cl)=C\Cn1c(N2CCCCCC2)nc2c1c(=O)n(C)c(=O)n2C
  RmlCD inh mix: 36 | RmlCD inh mix retest: 4
CC(=O)N(C)C1=C(N2CCOCC2)C(=O)c2ccccc2C1=O
  RmlCD inh mix: 126 | RmlCD inh mix retest: 3
CCc1ccc(NC(=O)CSc2nnc(-c3cnccn3)n2Cc2ccco2)cc1
  RmlCD inh mix: 43 | RmlCD inh mix retest: 1

New compounds follow
Under each structure – RmlCD inh mix	RmlCD inh mix retest
- O=C(O)CCc1ccc(S(=O)(=O)NCCc2ccccc2)cc1
    42	-2
- O=C(NCCCN1CCOCC1)c1ccccc1
    37	-4
- CCCC12CN3CC(C)(CN(C1)C3c1ccc(OC(C)C)cc1)C2=O (stereo not given)
    82	7
- CCn1cc([N+](=O)[O-])c(C(=O)N2N=C(c3ccc4ccccc4c3)CC2c2cc(Br)ccc2O)n1 (stereo not given)
    35	-9
- Cc1ccc(Cl)cc1N1CCN(C(=O)CCC(=O)O)CC1
    44	-1
- CCn1c(=O)c2c(cnn2C)c2ccccc21
    36	-3
- CCCN1C(=O)c2ccccc2NC1c1ccc(OC)cc1O (stereo not given)
    36	17
- COc1cccc(C(=O)OCCN2C(=O)c3ccccc3C2=O)c1OC
    43	-1
- O=C(Nc1cc(C(F)(F)F)ccc1N1CCOCC1)c1ccc(Cl)nc1
    40	-4
- COC(=O)CC(=O)CSc1nc(C)cc(C)c1C#N
    121*	·
- CCC1(CC)Cc2ccccc2-c2nc(CN3CCOCC3)[nH]c(=O)c21
    32	0
- Cc1ccc2c(c1)[nH]c1c(=O)n(Cc3ccccn3)cnc12
    167	-11
- Cn1c(SCc2cccnc2)nnc1-c1c[nH]c2ccccc12
    89	-11
- CCOC(=O)C(/C=C(\C#N)C(=O)OCC)=C(/N)N1CCN(c2ccccc2)CC1
    55	-9
- O=C(Cn1nnc(-c2ccc(Cl)cc2)n1)NCCC1=CCCCC1
    40	-6
- CC(C)CN(Cc1c(O)ccc2c3c(c(=O)oc12)CCC3)CC(C)C
    95*	52*
- CCOc1ccccc1NC(=O)CN(c1cc(C)cc(C)c1)S(=O)(=O)c1c(C)noc1C
    57	1
- Cc1ccc(C)c(N2CCN(C(=O)CNS(=O)(=O)c3cccs3)CC2)c1
    102	-11
- Cc1ccc(OCC(=O)N2CCN(C)CC2)c(Br)c1
    45	-3
- CCc1cccc(NC(=O)NC2CCCCC2)c1
    31	4
- COc1ccccc1C(=O)NC1CCCCCCC1
    88	3
- CCc1ccc(C(=O)NC(C(=O)O)C(C)C)cc1 (stereo not given)
    i	-15
- CCO/C(C)=C1\N=C(c2ccc(Cl)cc2)OC1=O
    32	18
- Cc1cc(NC(=O)CSc2nnc(-c3ccc(S(=O)(=O)N4CCCC4)cc3)n2C)no1
    35	5
- CCC(C)NC(=O)C1CCN(S(=O)(=O)c2ccc(OC)cc2)CC1 (stereo not given)
    64	-9
- CC1CCN(c2cc(N)c(Cl)cc2[N+](=O)[O-])CC1
    44	-16
- CCN1CCN(c2c(Cl)cccc2NC(=O)c2ccc3c(c2)OCCO3)CC1
    84	-1
- O=C(NCCCn1ccnc1)C(F)(F)C(F)(F)C(=O)NCCCn1ccnc1
    62	6
- Cc1ccc(S(=O)(=O)c2nc(-c3ccc(F)cc3)oc2SCC(=O)NCC2CCCO2)cc1 (stereo not given)
    97	6
- CCCCn1c(SCC(=O)O)nc2ccccc21
    46	3

Complete entries as entered above. Screens in order: RmlCD inh mix, RmlCD inh mix retest
Cc1ccc2c(c1)[nH]c1c(=O)n(Cc3ccccn3)cnc12 is entered as 167, -11
CCn1c(=O)c2c(cnn2C)c2ccccc21 is entered as 36, -3

Additional records.
Under each structure – RmlCD inh mix	RmlCD inh mix retest
- COC(=O)Cc1cc(OC)c(OC)cc1Cc1cc(OC)c(OC)cc1CC(=O)OC
    31	6
- CCOc1ccc2nc(-c3ccccc3)nc(SCC(=O)Nc3ncc(C)s3)c2c1
    30	2
- N#C/C(=C\c1cccc2ccccc12)c1nn(-c2ccccc2)c(N)c1C#N
    31	2
- COc1cc(=O)n(C)c2cc(N(C)C)ccc12
    80*	96*
